Screening results deposited in PubChem by National Center for Advancing Translational Sciences (NCATS).
GLA inh pH 4.5: blocks human alpha-galactosidase A at pH 4.5. purified enzyme, 4-MU-alpha-Gal fluorescence, pH 4.5. 230,000 tested, under 10 active. activity change, negative = inhibition, % at 105 µM; inconclusive = small, poorly fitted or top-dose-only inhibition, or a rising curve; inactive = flat fitted curve, though single readings scatter; no compound was filed as active;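 also: 0% = full activity with enzyme and -100% = basal without enzyme; dose as in the result columns while the protocol names 77 µM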
Target sequence (P06280 whole entry, looked up): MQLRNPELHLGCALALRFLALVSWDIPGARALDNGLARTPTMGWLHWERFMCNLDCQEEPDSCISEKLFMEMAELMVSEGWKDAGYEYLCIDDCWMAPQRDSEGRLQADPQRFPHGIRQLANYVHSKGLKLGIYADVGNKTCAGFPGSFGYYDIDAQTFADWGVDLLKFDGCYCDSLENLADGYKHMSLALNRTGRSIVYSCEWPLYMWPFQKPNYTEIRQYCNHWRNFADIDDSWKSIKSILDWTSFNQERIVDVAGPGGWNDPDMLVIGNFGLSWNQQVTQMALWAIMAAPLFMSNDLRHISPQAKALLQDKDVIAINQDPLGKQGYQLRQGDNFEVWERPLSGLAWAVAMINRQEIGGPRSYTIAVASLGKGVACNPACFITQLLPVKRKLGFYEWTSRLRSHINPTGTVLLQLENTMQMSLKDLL
Rango complex inh: inhibitors of Rango-importin beta complex formation; Rango CFP/YFP FRET sensor + importin beta, 45 min; 340,000 compounds, 0.031% hits; AID 540263; Potency, µM (top dose mostly 92.2 µM), for inactives: at the top dose inhibition of complex formation; active = rising FRET ratio curve, often small or poorly fitted; inconclusive = mostly compound fluorescence or quenching in the first reads; inactive = flat curves in all reads;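 also: potency is read from the fitted curve at half-maximal effect; 0% = DMSO wells and 100% = buffer wells lacking importin beta; nearly all actives have a fitted effect of over 15% in size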
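FRET biosensor Rango (snurportin 1 IBB between N-terminal EYFP and C-terminal Cerulean), 50 nM in PBS/1 mM DTT/0.02% Tween-20/0.1% BSA, preincubated 5 min RT with compound; 0.125 microM importin beta added, 45 min RT, CFP/YFP FRET ratio read.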
miR-21 reporter: raises the signal of a miR-21 reporter | Potency, µM (highest dose often 38.3 µM), for inactives: top-dose reporter change, positive = more light | 340,000 tested, under 10 active | HeLa miR-21 FLuc reporter, luciferase, 48 h; active = well fitted rising curve with a large enough effect; inconclusive = small, poorly fitted or top-dose-only effect; inactive = no such curve, though single readings can be large or run the other way;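 also: % of control where 0% means no effect; miR-21 action dims this reporter so a rising signal means less miR-21 action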
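Using DMEM plus 10% FBS, HeLa miR-21-FLuc cells are incubated with test compounds (final up to about 40uM) for 48 hours; firefly luciferase signal is then imaged following reagent-mediated lysis.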
Rango dissoc inh: prevents RanGTP from dissociating the Rango-importin beta complex | O95149+P62826 | Biochemical FRET Rango-importin beta, RanGTP-induced dissociation | Potency, µM (highest dose often 46.1 µM), for the others: at the top dose activity change, negative = inhibition | 340,000 compounds, 0.071% hits; active means falling FRET ratio curve, often poorly fitted, with flat reads before Ran was added; inconclusive means other falling curves, or compound fluorescence or quenching; inactive means flat or rising ratio curve;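 also: potency is read from the fitted curve at half-maximal effect; % of control where 0% means no effect; nearly all actives have a fitted effect of over 45% in size; -100% = wells without RanGTP and RCC1; the record marks most hits as doubtful in a second field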
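Compounds sat 5 min at room temperature with 0.1 uM Rango biosensor plus 0.25 uM importin beta, then FRET pre-read. RanGTP-RCC1 (0.6 uM Ran, 2mM GTP, 0.2 uM RCC1) added for 45 min, and the CFP/YFP post-read measured blocked complex dissociation.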
The depositor's hits bear a star; ? = inconclusive; . = not tested or not shown; & = joins results of further samples. These rows are one share of the data. The share of hits here may be higher or lower than overall.

SMILES	GLA inh pH 4.5	Rango complex inh	miR-21 reporter	Rango dissoc inh
CCn1c(SCC(=O)Nc2cccc(C)n2)nc2c1c(=O)n(C)c(=O)n2C	-5	-1.4%	-1%	0%
C[C@H](NCc1c[nH]c2ccccc12)c1ccccc1	.	3.1%	4%	1%
CCCc1ccc2oc(C(=O)N3CCCC3)c(C)c2c1	.	-0.5%	-41%	0%
CCC(c1nnc(SCC(=O)NCC2CCCO2)n1Cc1ccccc1)N(C)C (configuration not stated)	.	3.5%	.	10%
NC(=O)NCc1ccccc1F	7	0.0%	4%	-4%
COc1cc(NC(=O)c2ccc3c(c2)OCCO3)ccc1NC(=O)c1cccs1	9	2.3%	-19%	14%
COC(=O)c1sccc1OCc1cccc(OC)c1	1	0.2%	-12%	39%
O=C(Cc1ccc([N+](=O)[O-])cc1)Nc1nnc(C2CC2)s1	0	0.2%	-5%	-1%
CC(C)C(=O)Nc1c(-c2ccccc2Cl)c(=O)c2ccccc2n1C	.	-0.2%	6%	1%
Nc1c(C(=O)O)sc2nc(-c3ccccc3)cc(-c3ccc(F)cc3)c12	-2	?	-9%	?
CC1=CC(c2ccccc2)n2nc(NC(=O)CCCC(=O)O)nc2N1 (configuration not stated)	.	-2.0%	0%	-3%
COc1ccc2c(c1)c(C)cc[n+]2Cc1ccccc1	.	-0.3%	28%	25%
O=C(CCN1C(=O)/C(=C/c2cccs2)SC1=S)Nc1ccc(C(=O)O)c(O)c1	.	9.3%	0%	1%
COc1ccc2nc(C)cc(C(=O)O)c2c1	8	-0.6%	-3%	-5%
CC(C)n1c(N2CCN(C(=O)Nc3ccccc3)CC2)nc2ccccc21	11	-0.5%	-6%	19%
Cc1ccc(-n2nnnc2SCC(=O)c2c(N)n(C3CC3)c(=O)[nH]c2=O)cc1	.	-6.2%	.	15%
CC(C)N(Cc1nc2ccccc2c(=O)[nH]1)C(=O)c1ccc(NC(=O)CSc2nnnn2C)cc1	.	-3.3%	.	-8%
CCOC(=O)c1ccc(NC(=O)c2nc[nH]c2C(=O)N(CC)CC)cc1	4	-3.2%	-5%	1%
CCC(C)c1ccc(NC(=O)COC(=O)c2nc3nccc(C)n3n2)cc1 (configuration not stated)	7	-0.7%	-24%	-15%
COc1ccc(OCC(=O)NNC(=O)C(=O)Nc2cc(OC)ccc2OC)cc1	.	-1.0%	0%	-4%

Overlap with the part before: six entries, followed by the next part.
SMILES	GLA inh pH 4.5	Rango complex inh	miR-21 reporter	Rango dissoc inh
CC(C)n1c(N2CCN(C(=O)Nc3ccccc3)CC2)nc2ccccc21	11	-0.5%	-6%	19%
Cc1ccc(-n2nnnc2SCC(=O)c2c(N)n(C3CC3)c(=O)[nH]c2=O)cc1	.	-6.2%	.	15%
CC(C)N(Cc1nc2ccccc2c(=O)[nH]1)C(=O)c1ccc(NC(=O)CSc2nnnn2C)cc1	.	-3.3%	.	-8%
CCOC(=O)c1ccc(NC(=O)c2nc[nH]c2C(=O)N(CC)CC)cc1	4	-3.2%	-5%	1%
CCC(C)c1ccc(NC(=O)COC(=O)c2nc3nccc(C)n3n2)cc1 (configuration not stated)	7	-0.7%	-24%	-15%
COc1ccc(OCC(=O)NNC(=O)C(=O)Nc2cc(OC)ccc2OC)cc1	.	-1.0%	0%	-4%
COc1ccc(Cl)cc1NC(=O)Nc1ccccc1SC	-9	-2.9%	-8%	-14%
O=C(CN1CCc2ccccc2C1)NCC(=O)Nc1ccc(F)cc1	-5	-0.5%	1%	15%
Cc1ccc2[nH]cc(CCNC(=O)C3CCCCC3)c2c1	.	-0.5%	13%	-11%
O=C(O)CNC(=S)N(Cc1ccccc1)Cc1cccnc1	-9	6.4%	-4%	13%
NC(=O)c1cc(S(=O)(=O)N2CCOCC2)ccc1Sc1ccccc1N	.	1.0%	.	-10%
COc1ccc(Cc2c(O)nc(SCC(C)C)[nH]c2=O)cc1	.	2.7%	-1%	6%
CNC(=S)N1N=C(c2ccc(C)cc2)CC1c1cc(OC)ccc1OC (configuration not stated)	-1	-0.2%	18%	2%
Cc1cc(Cl)c(S(=O)(=O)N2CCSCC2)cc1OCC(=O)NC1CCCCC1	-9	0.7%	15%	-2%
Nc1ncnc2c1ncn2[C@@H]1O[C@H](CNCc2ccccc2)[C@@H](O)[C@H]1O	.	-0.8%	.	10%
COc1ccc(C(=O)NCC(=O)N/N=C/c2ccc([N+](=O)[O-])o2)cc1OC	-10	0.2%	?	-25%
COc1ccccc1N1CC(C(=O)OCC(=O)c2ccc(F)cc2)CC1=O (configuration not stated)	2	3.2%	-6%	4%
CCOC(=O)N1CCN(S(=O)(=O)c2ccc(C(=O)Nc3sc4c(c3C#N)CCC4)cc2)CC1	-3	-1.9%	0%	-14%
N#CC1=C(N)OC2=C(C(=O)CCC2)C12CCC1(CC2)OCCO1	11	?	-9%	-2%
O=C(COc1ccc(C(=O)c2ccc(F)cc2)cc1)Nc1cccc(S(=O)(=O)N2CCOCC2)c1	.	0.0%	.	-2%
CCc1nnc(NC(=O)CCC(=O)N2CCN(Cc3ccc(OC)c(F)c3)CC2)s1	.	5.2%	5%	-5%
CC1Sc2ccccc2N(CC(=O)N(C(C)C)C(C)C)C1=O (configuration not stated)	7	-0.6%	-4%	-3%
CCO[C@H]1OC(C(=O)NCc2ccccc2)=C[C@@H](c2ccccc2)[C@@H]1CCCO	-14	?	24%	2%
CNC(=O)/C(=C\c1ccc2c(c1)OCO2)NC(=O)c1ccc(Br)cc1	3	?	-12%	-11%
c1ccc2[nH]c(-c3cscn3)nc2c1	-2&-4&4	5.0%	-43%	-13%
CCOc1ccc2[nH]c(=O)c(CN(Cc3nnnn3Cc3ccccc3)CC3CCCO3)cc2c1 (configuration not stated)	4	1.8%	-5%	-8%

A few values from the entries so far.
Entry for CCc1nnc(NC(=O)CCC(=O)N2CCN(Cc3ccc(OC)c(F)c3)CC2)s1 in Rango complex inh: 5.2%
Entry for NC(=O)c1cc(S(=O)(=O)N2CCOCC2)ccc1Sc1ccccc1N in Rango dissoc inh: -10%

Next section.
SMILES	GLA inh pH 4.5	Rango complex inh	miR-21 reporter	Rango dissoc inh
CC(C)Oc1ccc(C2C(C#N)=C(N)Oc3c2oc(CO)cc3=O)cc1 (configuration not stated)	3	0.0%	-3%	8%
CC(=O)Nc1cccc(/C(C)=N/NC(=O)c2cc(-c3ccncc3)nc3ccccc23)c1	0	1.5%	23%	2%
COc1ccc(CC(=O)OCC(=O)NNC(=O)c2ccccc2)cc1	.	5.9%	.	-7%
CC1CC(C)CN(CCCNC(=O)Cc2c(C(=O)O)n(C)c3ccccc23)C1 (configuration not stated)	3	-1.0%	1%	9%
C/C(=N/NC(=O)CNc1ccc(Cl)cc1C)c1ccc(C)cc1	-1	2.1%	-3%	9%
CCOc1ccc(S(=O)(=O)N2CCN(C(=O)c3cc4ccccc4o3)CC2)cc1	.	-0.7%	.	27%
CC12CNCC(C)(CN(C3(O)C(=O)Nc4ccc(Br)cc43)C1)C2=O (configuration not stated)	-10	1.3%	10%	2%
C=CCn1c2ccccc2c2nnc(SCC(=O)Nc3c(C)n(C)n(-c4ccccc4)c3=O)nc21	2	0.5%	-11%	-6%
CSc1ccc(C2C(C(=O)c3ccco3)=C(O)C(=O)N2c2nnc(SC)s2)cc1 (configuration not stated)	.	?	-59%	?
CCOP(=O)(c1ccc(N(C)C)cc1)C(O)c1ccccc1OC (configuration not stated)	4	2.7%	-2%	-6%
O=C(Nc1cccc([N+](=O)[O-])c1)c1[nH]ncc1Cl	2	-0.7%	-46%	15%
COc1ccc(CNC(=O)CCn2c(=O)oc3ccccc32)cc1	1	0.6%	-3%	18%
OCCNC(=S)c1ccccc1	-6	1.0%	-4%	3%
COC(=O)c1sccc1NC(=O)CSc1ccccc1NS(=O)(=O)c1ccc(Cl)cc1	-12	-0.4%	15%	1%
O=C(O)CCCNS(=O)(=O)c1cccs1	-1	5.4%	-2%	-13%
Cc1ccc(NC(=O)CC2SC(=Nc3ccc(O)cc3)NC2=O)cc1 (configuration not stated)	-16	-3.3%	4%	4%
CCN(CC)CCCN1C(=O)C(=O)/C(=C(/O)c2ccc(OC)c(Cl)c2)C1c1ccco1 (configuration not stated)	-1	.	-2%	.
COc1ccccc1NS(=O)(=O)c1cccc(C(=O)NCC(c2ccco2)N2CCCC2)c1 (configuration not stated)	.	-3.3%	.	3%
O=C(NCc1nnc2c(C(F)(F)F)cc(Cl)cn12)c1ccco1	.	-0.2%	2%	13%
CCN(C(=O)CCc1nc(-c2ccccc2F)no1)c1cc(OC)ccc1OC	-6	0.1%	12%	1%
CCN1CCc2c(OCC(=O)Nc3ccccc3)cccc2C1=O	.	-1.9%	0%	4%
Cn1cc(/C=C2\SC(=O)NC2=S)c2ccccc21	-27	3.0%	-5%	1%
COc1cc(C(=O)NC2CCN(Cc3ccccc3)CC2)cc(Cl)c1OC(C)C	.	3.7%	1%	1%
CCN(CC)CCNS(=O)(=O)c1ccc(C(=O)NN)cc1	-4	5.2%	-2%	-11%
CNC(=O)CSCc1c(F)cccc1Cl	2	-4.5%	-7%	-4%
CCOC(=O)N1CCN(C(=O)Nc2ccc3nc(C)sc3c2)CC1	-7	-4.1%	-11%	-29%
CCOC(=O)CNC(=O)CSc1nc(-c2ccccc2)ns1	-2	-6.3%	-2%	-5%
CC(C)NC(=O)CCNS(=O)(=O)c1ccc(Br)cc1	-4	-3.1%	-1%	0%
Cc1ccc(NC(=O)COC(=O)CCCC2=NS(=O)(=O)c3ccccc3N2)cc1C	.	0.0%	1%	-6%
COCC(C)NC(=S)Nc1ccccc1[N+](=O)[O-] (configuration not stated)	1	0.1%	0%	22%
CCOC(=O)N1CCN(c2ccc(C(=O)CC)cc2F)CC1	-1	1.6%	-18%	5%
Cc1csc(NC(=O)CCCC(=O)O)c1-c1nc2ccccc2s1	0	-1.7%	-2%	-11%
Cc1ccc(S(=O)(=O)Nc2ccccc2C(=O)N2CCCCCC2)cc1	.	-0.1%	6%	-3%
Cc1cccc(OCc2nnc(SCC(=O)N3CCCC3)o2)c1	.	6.7%	-1%	24%
CCc1c(O)nc(SCC(=O)Nc2nc3ccccc3s2)n(C2CCCCC2)c1=O	1	-2.4%	-4%	-12%
COc1ccc(NC(=O)COC(=O)c2ccccc2SCC(=O)N2CCCC2)cc1	.	0.1%	.	-6%
Cc1ccc(S(=O)(=O)Nc2c(O)c3ccccc3oc2=O)cc1C	.	5.7%	-16%	-4%
CCOc1ccccc1C(=O)N[C@H](C(=O)Nc1cc(S(=O)(=O)N(C)C)ccc1OC)C(C)C	-3	0.2%	1%	2%
COc1cccc(NC(=O)CN(C)C(=O)CCNC(=O)c2ccc(Br)cc2)c1	.	1.6%	.	20%
Cc1ccc(C(=O)N2N=C(CC(C)C)CC2(O)C(F)(F)F)o1 (configuration not stated)	14	1.7%	-16%	-12%
Cc1cccc(/N=C/c2c(O)c3ccccc3oc2=O)n1	1	1.4%	6%	-14%
CCN1CCN(Cc2nnc(-c3ccc(C)cc3)o2)CC1	.	-0.7%	-5%	2%
N#CC1(NC(=O)COc2cccnc2[N+](=O)[O-])CCCCC1	.	-2.6%	.	-17%
COC(=O)[C@H]1[C@H]2C[C@@H]3c4[nH]c5cc(OC)ccc5c4CCN3C[C@H]2C[C@@H](OC(=O)c2cc(OC)c(OC)c(OC)c2)[C@@H]1OC	-16	?	.	12µM*
CC(C)CCN(Cc1ccco1)S(=O)(=O)c1ccc(-c2ccc(=O)[nH]n2)s1	.	0.6%	-12%	1%
O=C(NC(=O)c1ccccc1O)c1ccc2c(c1)CCO2	-5	-0.3%	23%	-9%
CCOc1ccc(NC(=O)CN(C)C(=O)c2ccc3c(c2)S(=O)(=O)N=C2CCCCCN23)cc1OCC	.	-4.6%	.	-13%
O=C(c1cc(Cl)nc2ccccc12)N1CCN(S(=O)(=O)c2cccc(F)c2)CC1	.	2.4%	.	1%
CC(n1cnnn1)C12CC3CC(CC(C3)C1)C2 (configuration not stated)	2	-2.1%	-12%	-6%
CCOC(=O)C1CCCN(S(=O)(=O)NC[C@H]2O[C@@H](n3cnc4c(N)ncnc43)[C@H](O)[C@@H]2O)C1 (some centres not stated)	.	0.4%	.	8%
c1ccc(COc2ccc(OCCn3cncn3)cc2)cc1	6	0.7%	-44%	1%
